# Source: PubChem BioAssay (PCMD)
# Biofilm kill mix – mixture kills Candida albicans biofilm cells; 120,000 compounds, 0.02% hits; AID 1242; inhibition, % at 7.6 µM; C. albicans biofilm persisters + clotrimazole, fluorescence viability; primary screen in compound mixtures of four per well;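 active = inhibition above 30.3% in the primary screen of four-compound pools, then above 30% when the compound was retested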;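 also: compounds exposed to preformed 24 h biofilms for 48 h; the number belongs to the whole pool; some results filed as inactive read as strong as hits; inactives centre near 12; 0% = biofilm with clotrimazole alone and 100% = kill control; retested singly at about 60 µM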
#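 Test system: C. albicans CAF4-2 wild-type biofilms; buffer or medium: RPMI/MOPS medium, pH 7.0; schedule: 24 h biofilm formation, then 48 h compound exposure, 37 °C; detection: Alamar Blue fluorescence; measure: percent inhibition of biofilm viability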
# * hit, by the source's call. A portion of the library; count on the stated rates, not on these rows.
SMILES,Biofilm kill mix
O=C(CN(c1ccc2c(c1)OCCO2)S(=O)(=O)c1ccccc1)NCc1ccc(Cl)cc1,16
COc1ccc2oc(C(=O)OCC(=O)/C(C#N)=C(\C)N)c(C)c2c1,7
CCOC(=O)C1(Cc2cccc(OC)c2)CCCN(C(=O)CCc2cccnc2)C1 (centres undefined),25
CC(C)NC(=O)CCc1nnc(Cc2cccc(C(F)(F)F)c2)o1,12
NC(=O)[C@H]1CC2(CC(c3cccc(NC(=O)CC(c4ccccc4)c4ccccc4)c3)=NO2)CN1C(=O)CC(c1ccccc1)c1ccccc1 (some centres undefined),18
CCOC(=O)COc1ccc2c(=O)c(-c3ccc(OC)c(OC)c3)c(C(=O)OCC)oc2c1,14
Cc1ccc(/C=C/C(=O)NCc2ccc3c(c2)OCO3)o1,14
Cc1cc(C)cc(NC(=S)/N=C(\N)Nc2nc(C)c3ccccc3n2)c1,15
CC(=O)N(C)c1ccc(NC(=S)NCC(C)C)cc1,17
COc1ccccc1NS(=O)(=O)c1cc(NC(=S)NCCN2CCOCC2)ccc1N1CCOCC1,24
Cc1nn(Cc2ccc([N+](=O)[O-])cc2)c(=O)n1-c1ccccc1Cl,8
COc1cc(OC)c(C(=O)NCc2cccnc2)cc1OC,20
CC1CCN(C(=O)c2ccc(S(=O)(=O)Cc3cc(F)ccc3F)c([N+](=O)[O-])c2)CC1,8
O=C(Nc1ccc(F)cc1)c1cccnc1NCCc1ccccc1,11
Nn1c(Cc2cccc3ccccc23)nnc1SCCOc1ccc(Br)cc1,7
C[C@@H]1NC(=O)c2cc([N+](=O)[O-])cc(I)c2OCC[C@@H](C(N)=O)NC(=O)[C@H](CCCCN)NC1=O,8
N#Cc1c(=O)c2nc(NCCCO)ncc2n2c(=O)c3ccccc3[nH]c12,13
Clc1cccc(Oc2ncccn2)c1,16
O=C(O)C(c1ccccc1)C(c1ccccc1)c1ccccc1 (centres undefined),16
COc1ccc(C2(C)NC(=O)N(CC(=O)Nc3ccc(S(=O)(=O)N4CCCC4)cc3)C2=O)cc1 (centres undefined),15
CCSC1=C(C#N)C2(CCCCC2)C2=C(CC(C)(C)CC2=O)N1,13
COc1ccc(Cl)cc1N/C(N)=N/c1nc(C)cc(=O)[nH]1,7
CN(C)CCCSc1nc(-c2ccccc2)nc2c1CCC2,3
O=C(c1cc([N+](=O)[O-])ccc1Cl)N1CCN(Cc2ccc3c(c2)OCO3)CC1,11
COc1ccc(C(=O)CSc2nc3ncccc3[nH]2)cc1OC,-7
CCc1nnc(NC(=O)CSc2ccc(-c3ccco3)nn2)s1,25
CCOC(=O)c1cnc(/N=C/N(C)C)s1,-12
O=C(CN1C2=NCCN2c2ccccc21)c1cccs1,17
Cc1nc(CNS(=O)(=O)c2cc([N+](=O)[O-])ccc2C)cs1,22
CCCCCCCC(=O)OC(CN1CCCCCC1)CN1CCCC1=O (centres undefined),1
Cc1ccc(C(=O)NC(=C(Cl)Cl)S(=O)(=O)c2ccc(Cl)cc2)cc1,6
CN(C)S(=O)(=O)c1ccc(Cl)c(NC(=O)CSc2nc3c(cc2C#N)C(=O)CC(C)(C)C3)c1,10
Cn1cc([N+](=O)[O-])c(C(=O)N/N=C/c2cc3c(cc2Br)OCO3)n1,29
O=c1oc2ccccc2cc1-c1csc(Nc2nc3c(F)cccc3s2)n1,3
Nc1nc(SCc2nc3sc4c(c3c(=O)[nH]2)CCCC4)n[nH]1,1
Cc1ccc(NC(=O)c2ccc3c(c2)nnn3C)cc1,21
Cc1ccc(CSc2ccc3nnc(-c4ccccn4)n3n2)cc1,4
CCn1c(COc2ccccc2C)nnc1SCc1nc2ccccc2c(=O)[nH]1,17
Cc1ccc(/C=N/NC(=O)c2ccoc2C)o1,17
COc1ccccc1C1CCN(c2ccc([N+](=O)[O-])cn2)CC1,7
Fc1ccc(NCc2nnc3n2CCCCC3)cc1,12
Cc1ccc(C)c(/C=N/n2cc(-c3ccccc3)[nH]c2=S)c1,2
CCOc1ccc(CN2CCN(Cc3cccn3-c3cccnc3)CC2CCO)cc1 (centres undefined),19
CC(Oc1ccccc1)C(=O)OCC(=O)N1CC(=O)Nc2ccccc21 (centres undefined),-2
CC(C)(C)OC(=O)NCCCC[C@H](NC(=O)c1[nH]cnc1C(=O)Nc1ccc(Cl)cc1)C(=O)OC(C)(C)C,6
O=C(Nc1cc(C(F)(F)F)ccc1Cl)c1ccc(NC(=O)C(F)(F)F)cc1,11
O=C(NCC(=O)N1CC(O)CC1C(=O)N1CC(O)CC1C(=O)OCc1ccccc1)OCc1ccccc1 (centres undefined),14
CC(C)C(=O)Nc1ccc2c(c1)C(=O)NC2=O,18
Cc1ccc(NCc2nnc(SCC(=O)Nc3cc(C)on3)n2C)cc1,7
COc1ccc(Nc2nc(NCc3ccco3)nc(N/N=C/c3ccccc3F)n2)cc1,13
# The list goes on.
SMILES,Biofilm kill mix
CCOC(=O)N1CCN(C(=O)c2ccc(OCC)cc2)CC1,2
COc1ccc(C(=O)COC(=O)CCN2C(=O)C3C4CCC(C4)C3C2=O)cc1 (centres undefined),23
COc1ccc(-c2cnc3n2CCCCC3)cc1,30
O=S(=O)(CCNCc1cccs1)c1ccc(Cl)cc1,18
CC(C)(C)C(=O)OC/C(N)=N/OC(=O)c1ccc(Cl)cc1,19
Cc1ccc(-n2[nH]c(C)c(/C=N/NC(=O)c3ccc([N+](=O)[O-])cc3)c2=O)c(C)c1,-9
O=C(CNC(=S)N(CCCN1CCOCC1)Cc1cccs1)NC1CC1,12
Cc1cc2nnc(SCC(=O)N3CCCCC3)n2c(N)n1,29
CC(=O)NC1C(Oc2ccc3c(C)cc(=O)oc3c2)OC(COC(C)=O)C(OC(C)=O)C1OC(C)=O (centres undefined),-4
c1ccc(-n2nnnc2-c2cnc(-c3ccncc3)nc2-c2cccs2)cc1,14
COc1cccc([C@@H]2Oc3ccc(OC)cc3C(=O)[C@H]2O)c1,17
O=c1c(Cc2ccccc2)c(O)ccn1CCc1cnc[nH]1,-6
COc1ccc(/C=C/C(=O)OCC(=O)c2c(N)n(C)c(=O)n(C)c2=O)c(OC)c1,20
Cc1cc(Cl)c(OCCOCCN2CCCCC2)c(Br)c1,9
CC(C)S(=O)(=O)N1CCN(c2ccnc3cc(Cl)ccc23)CC1,12
COC(=O)C(=NNc1c(C)n(C)n(-c2ccccc2)c1=O)C(=O)OC,3
Cc1cc(NC(=O)Cn2cnc3c(nnn3-c3ccc(C)c(Cl)c3)c2=O)no1,7
COC(=O)c1ccc(S(=O)(=O)N2CCN(CCO)CC2)n1C,12
CC(Oc1cccc(Cl)c1)c1ccnc2nc(/N=C/N(C)C)nn12 (centres undefined),19
COc1cc(/C=N/O)ccc1OCc1ccc([N+](=O)[O-])cc1,9
O=C(CC1S/C(=N/N=C/c2cccs2)NC1=O)Nc1ccccc1F (centres undefined),20
Cn1cc(/C=C/c2nc3ccccc3c(=O)n2-c2cccc([N+](=O)[O-])c2)c2ccccc21,5
CCN(CC)Cc1ccc(NC(=O)c2sc3cc(Cl)ccc3c2Cl)cc1,23
Cc1ccccc1NC(=S)NC(=O)c1cncc(Br)c1,9
COCCn1c(=O)sc2ccccc2c1=O,13
COc1ccc2ccccc2c1CNC(=O)CC1C(=O)NCCN1CC(C)(C)C (centres undefined),15
COc1cccc(/C=N/NC(=O)CCn2c3ccccc3c3ccccc32)c1,15
CCn1ncc(C(=O)Nc2cccc(Cl)c2)c1C,0
CN(Cc1ccccc1)CC(O)COc1ccc(CNCCc2cccnc2)cc1 (centres undefined),11
O=C(O)C[C@@H]1C(=O)O[C@@H]2C(COC(=O)c3cc(O)c(O)c(O)c3)O[C@@H](OC(=O)c3cc(O)c(O)c(O)c3)[C@@H](OC(=O)c3cc(O)c(O)c4c3[C@H]1[C@H](O)C(=O)O4)[C@H]2OC(=O)c1cc(O)c(O)c(O)c1 (some centres undefined),3
O=C(O)c1cnn2c(C(F)F)cc(C(F)F)nc12,4
COc1ccc(S(=O)(=O)Nc2ccncc2)c(C)c1C,4
CN(C)C(=N)c1n[nH]nc1SCc1ccc(Cl)c(Cl)c1,3
COc1cc(NC(=S)NC(=O)c2ccco2)ccc1NC(=O)C(C)C,-2
Cc1[nH]n(-c2ccccc2)c(=O)c1/C=N/c1nn[nH]n1,28
Cc1ccc(-c2nnn(CC(=O)N(c3ccc4c(c3)OCCO4)C(C(=O)NCC3CCCO3)c3ccc(F)cc3)n2)o1 (centres undefined),12
COc1ccc(C=C2c3ccccc3C(=O)c3ccccc32)c(OC)c1,29
CC(=C\c1ccccc1)/C=C1/SC(=S)N(C(C(=O)O)C(C)C)C1=O (centres undefined),3
CS(=O)(=O)N(CCc1ccccc1)CC(=O)N1CCN(c2ccc(F)cc2)CC1,7
COc1ccc(CC(=O)NNC2=Nc3cccc4cccc2c34)cc1,19
Cc1ccc(S(=O)(=O)N(C)C)cc1NC(=O)COC(=O)/C(=C/c1ccc(F)cc1)c1cccs1,1
CCOC(=O)C1(Cc2cccc(F)c2)CCN(C2CCOCC2)CC1,31
CCCCC(=O)Nc1ccc(C(=O)Nc2ccc(S(=O)(=O)Nc3ccc(C)cc3)cc2)cc1,8
Cc1ccccc1NC(=O)CSc1n[nH]c(-c2ccco2)n1,23
CCOC(=O)C[N+](C)(C)CCOC1CC2CCC1(C)C2(C)C (centres undefined),24
CCCc1cc2c(=O)c(-c3ccc4c(c3)OCCO4)coc2cc1OS(C)(=O)=O,9
COC(=O)c1nc2ccccc2s1,13
CC(=C/c1ccc(C(C)C)cc1)/C=N/NC(=O)CSc1ccccn1,15
CCOC(=O)c1cc(C#N)c(SCC(=O)OC)[nH]c1=O,17
O=C(CCNC(=O)c1ccccc1Cl)Nc1cc(S(=O)(=O)N2CCOCC2)ccc1N1CCCC1,20

# Reformatted field by field: two of the compounds above.
CCOC(=O)C[N+](C)(C)CCOC1CC2CCC1(C)C2(C)C (centres undefined)
  Biofilm kill mix: 24

CCCc1cc2c(=O)c(-c3ccc4c(c3)OCCO4)coc2cc1OS(C)(=O)=O
  Biofilm kill mix: 9

# (cont.)
SMILES,Biofilm kill mix
CCCNC(=O)[C@H](Cc1c[nH]c2ccccc12)NC(=O)c1ccccc1Cl,8
CN(C)c1ccc(/C=C2\CCCCC2=O)cc1,16
COc1ccc(OC)c(CC(NC(C)=O)C(=O)NC2CCN(c3c(Cc4ccccc4)c(C)nc4ncnn34)CC2)c1 (centres undefined),10
COc1ccccc1NC(=O)c1ccc(NC(=O)CSc2nncn2C)cc1,-4
CP(=O)(Nc1cc(Cl)ccc1Cl)c1nc2c(s1)CCCC2 (centres undefined),21
O=C(N/N=C/c1ccc[nH]1)c1ccc2c(c1)OCO2,17
CCN(CC)c1ccc(/C=N/Nc2nc(C)cc(C)n2)c(O)c1,13
NNC(=O)c1oc2nc(-c3ccccc3)cc(-c3ccco3)c2c1N,21
Cc1cccc(-n2nnnc2-c2cnccc2C(F)(F)F)c1C,8
CCN1CCN(C(=S)Nc2cccc([N+](=O)[O-])c2)CC1,19

# Look-ups from the entries so far.
# `CCN1CCN(C(=S)Nc2cccc([N+](=O)[O-])c2)CC1` | Biofilm kill mix: 19
# `O=C(N/N=C/c1ccc[nH]1)c1ccc2c(c1)OCO2` | Biofilm kill mix: 17
# `COc1ccc(OC)c(CC(NC(C)=O)C(=O)NC2CCN(c3c(Cc4ccccc4)c(C)nc4ncnn34)CC2)c1` (centres undefined) | Biofilm kill mix: 10
# `Cc1cccc(-n2nnnc2-c2cnccc2C(F)(F)F)c1C` | Biofilm kill mix: 8
# `CP(=O)(Nc1cc(Cl)ccc1Cl)c1nc2c(s1)CCCC2` (centres undefined) | Biofilm kill mix: 21
# `CCN(CC)c1ccc(/C=N/Nc2nc(C)cc(C)n2)c(O)c1` | Biofilm kill mix: 13

# (continued)
SMILES,Biofilm kill mix
Cc1ccsc1/C=N/NC(=O)c1ccc([N+](=O)[O-])cc1,14
CCOC(=O)c1sc(NC(=O)Nc2ccccc2Cl)cc1C,15
CCOC(=O)Cc1csc(NS(=O)(=O)c2ccc(C(F)(F)F)cc2)n1,12
Cn1/c(=N/NC(=O)c2ccccc2F)sc2ccccc21,13
COc1ccc(C(=O)c2c(O)cc(-c3ccc(OC)cc3)oc2=O)cc1,19
O=C(COc1ccc2ccccc2c1)NN1C(=O)c2ccccc2C1=O,19
COCCNC(=O)CSc1cc(=O)n(C)c2cc(Cl)ccc12,2
Cc1ccc(/C=C(\C#N)C(=O)Nc2cccc3ncccc23)o1,11
O=C1c2ccccc2NC(c2cn[nH]c2-c2ccc(Cl)cc2)N1O (centres undefined),17
C=CCn1c(=NC(=O)C2COc3ccccc3O2)sc2cccc(OC)c21 (centres undefined),19

# Sorted by SMILES length (high to low): some entries from above
SMILES,Biofilm kill mix
COc1ccc(C(=O)c2c(O)cc(-c3ccc(OC)cc3)oc2=O)cc1,19
O=C(COc1ccc2ccccc2c1)NN1C(=O)c2ccccc2C1=O,19
COCCNC(=O)CSc1cc(=O)n(C)c2cc(Cl)ccc12,2
Cn1/c(=N/NC(=O)c2ccccc2F)sc2ccccc21,13

# Next entries follow:
SMILES,Biofilm kill mix
CCCCC(=O)Nc1ccc(NC(=S)NC(=O)CCCCl)cc1OC,10
O=C1COc2ccc(C(=O)COC(=O)Cc3ccccc3F)cc2N1,13
C[N+]1(C2CCC3CCC2C3O)CCCC1 (centres undefined),18
Cn1nc(-c2ccccc2)c(C(=O)NC(C(=O)O)c2ccccc2)c1Cl (centres undefined),22
O=C(CSc1nc2ccccc2n1CCc1ccccc1)N1CCOCC1,14
CCCCOCCCNCC(=O)Nc1ccc(S(N)(=O)=O)cc1,-9
CCOC(=O)c1c(/N=C/N(C)C)sc(/C=N/Nc2ccccc2)c1-c1ccccc1,-9
CC1(C)S[C@@H]2[C@H](NC(=O)Cc3ccccc3)C(=O)N2[C@H]1C(=O)O,3
CNC(=O)N(O)C1N(c2ccccc2)C(=S)SC1(C)C (centres undefined),14
CCCCc1oc2ccccc2c1C(=O)c1cc(I)c(OCCN(CC)CC)c(I)c1,14

# Fetched by structure from above:
SMILES,Biofilm kill mix
Cn1/c(=N/NC(=O)c2ccccc2F)sc2ccccc21,13
C=CCn1c(=NC(=O)C2COc3ccccc3O2)sc2cccc(OC)c21 (centres undefined),19
